# Sfp inh – Sfp phosphopantetheinyl transferase inhibition | Potency, µM, inactives show max response, negative = inhibition, actives largely listed as inhibitors | hit rate 3.5% among 310,000 | Q9F4F7 | Biochemical Sfp PPTase activity, qHTS; active means well fitted inhibition curve with a large enough effect; inconclusive means small, poorly fitted or top-dose-only effect, or another doubt; inactive means no such curve, though single readings can be large or run the other way;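 further: the enzyme is Sfp with the accession as filed and its product quenches rhodamine fluorescence; 0% = enzyme reaction without inhibitor and -100% = no enzyme wells; top concentration of the series not given in the record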
#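 Fluorescence-quenching assay with 15 nM Sfp, 5 uM rhodamine-CoA and 12.5 uM BHQ-2-labelled ybbR peptide in pH 7.6 Hepes/MgCl2 buffer. Enzyme was pre-incubated with compound for 15 min at room temperature. Rate was taken from the 30-min fluorescence change (525/598 nm).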
# An asterisk follows results filed as active; ? = inconclusive; & = joins results of further samples; [ ] = dose if it differs, or a comment. Potency means the concentration at half of the fitted maximal effect. This is a subset. The share of hits here may be higher or lower than overall.
molecule	Sfp inh
CC(/C=C/C=C(\C)C(=O)O[C@@H]1O[C@H](CO[C@@H]2O[C@H](CO)[C@@H](O)[C@H](O)[C@H]2O)[C@@H](O)[C@H](O)[C@H]1O)=C\C=C\C=C(C)\C=C\C=C(/C)C(=O)O[C@@H]1O[C@H](CO[C@@H]2O[C@H](CO)[C@@H](O)[C@H](O)[C@H]2O)[C@@H](O)[C@H](O)[C@H]1O	3.8%
N[C@H](Cc1ccc(O)cc1)C(=O)O	-5.8%&-5.2%
COc1ccc(-c2cnnc(CCCn3ccnc3-c3ccccc3)n2)cc1	9.1%
O=C(NCc1cccc2ccccc12)[C@H]1C[C@@H]1[C@H](NP(=O)(c1ccccc1)c1ccccc1)c1ccccc1	20.7%
CO[C@]1(C)C[C@H]2O[C@]1(C)n1c3ccccc3c3c4c(c5c6ccccc6n2c5c31)C(=O)N(C)C4	-9.8%
CC(C)C[C@H](NC(=O)[C@H](CCCCN)NC(=O)CNC(=O)[C@H](CC(C)C)NC(=O)[C@@H](N)C(C)C)C(=O)N[C@@H](CO)C(=O)N[C@@H](CCC(N)=O)C(=O)N[C@@H](CCC(=O)O)C(=O)N[C@@H](CC(C)C)C(=O)N[C@@H](Cc1cnc[nH]1)C(=O)N[C@@H](CCCCN)C(=O)N[C@@H](CC(C)C)C(=O)N[C@@H](CCC(N)=O)C(=O)N[C@H](C(=O)N[C@@H](Cc1ccc(O)cc1)C(=O)N1CCC[C@H]1C(=O)N[C@@H](CCCNC(=N)N)C(=O)N[C@H](C(=O)N[C@@H](CC(N)=O)C(=O)N[C@H](C(=O)NCC(=O)N[C@@H](CO)C(=O)NCC(=O)N[C@H](C(=O)N1CCC[C@H]1C(N)=O)[C@@H](C)O)[C@@H](C)O)[C@@H](C)O)[C@@H](C)O	0.8%
Cc1cc(NC(=O)Nc2ccc(N(C)C)cc2)c2cc(F)cc(F)c2n1	?
CCN1C(=O)N[C@@H](c2ccccc2)C1=O	28.9%
O=C(/C=C/c1ccc(Br)o1)Nc1nnc(C2CC2)s1	?
CCCCC[C@H](O)/C=C/C1=C(C/C=C\CCCC(=O)O)C(=O)CC1	10.9%&-10.4%
CSCC[C@H](NC(=O)[C@H](Cc1c[nH]c2ccccc12)NC(=O)CCNC(=O)OC(C)(C)C)C(=O)N[C@@H](CC(=O)O)C(=O)N[C@@H](Cc1ccccc1)C(N)=O	-9.2%
CC1(C)C[C@](C)(C(=O)c2ccccc2)C=C1c1ccccc1	-16.7%
CCC(=O)[C@]12O[C@@]3(C4C(=O)OCCC41)N(Cc1ccccc1)C(C)=C(C(=O)OC)C(c1ccccc1)N3C2=O (stereo partly specified)	8.9%
COc1ccc2c(c1)O[C@@H](c1ccc3c(c1)OCO3)[C@H](OC(=O)Nc1ccc(C)c(Br)c1)C2=O	1.1%
COc1ccc(C[C@@](C)(N)C(=O)O)cc1OC	-21.6%
CC1=CCC2CC1C2(C)C (stereo unspecified)	19.8%
Clc1ccc([C@H](Cn2ccnc2)OCc2c(Cl)cccc2Cl)c(Cl)c1	1.8%
NCCC[C@@H](CC(=O)N[C@@H]1CCNC[C@H]1C(=O)N[C@H](CC(=O)N[C@@H](CCC(=O)O)CC(=O)O)Cc1ccccc1)NC(=O)C[C@H](Cc1ccccc1)NC(=O)[C@@H]1CNCC[C@H]1N	-15.5%
C=CCCn1c(Cl)c(C#N)sc1=O	-21.2%
O=S(=O)(CCc1ccccc1)c1nnnn1-c1ccccc1	27.4%
O=C(Nc1nccs1)C1CC=CC2CCN(Cc3ccc(Cl)c(Cl)c3)C(=O)C21 (stereo unspecified)	17.4%
COC(=O)C1=C(C(=O)OC)[C@@H]2N(C)c3ccc(OC)cc3[C@@]23C[C@@H](C(=O)OC)N(S(=O)(=O)c2ccc4c(c2)OCCN4C)C3=N1	1.9%
O=c1cc(N2CCOCC2)oc2c1ccc1ccccc12	-0.1%
COC(=O)[C@H]1C[C@@H]1[C@H](NS(=O)(=O)c1ccc(-c2ccccc2)cc1)c1ccccc1	11.6%
COc1ccc(C2/C=C\CN(C(=O)C3CCCCC3)C(C)C(=O)N2Cc2ccc(F)cc2)cc1 (stereo unspecified)	-2.1%
CC1CC=CC2C1C(=O)N(Cc1ccccc1)C2c1cccc([N+](=O)[O-])c1 (stereo unspecified)	-12.8%
C/C=C/OC(=O)NC(c1ccccc1)[C@]1(C(C)=O)CCOC1=O (stereo partly specified)	1.3%
CCCn1c(-c2ccc(F)cc2)nc2c(N3CCC(N(C)C)C3)nc(C)nc21 (stereo unspecified)	5.7%
COc1cc(-c2coc3cc(O[C@H]4OC(CO)C(O)C(O)C4O)c(OC)c(O)c3c2=O)cc(O)c1OC (stereo partly specified)	14.4%
CCCCCCCC/C=C\C/C=C\C/C=C\CCCC(=O)O	17.3%&2.7%
CCCCCOC(=O)Nc1nc(=O)n(C2O[C@H](C)[C@@H](O)[C@@H]2O)cc1F (stereo partly specified)	12.6%
CC(=O)N[C@@H](Cc1ccc(O)cc1)C(=O)N[C@H](C(=O)N[C@@H](C)C(=O)N[C@H](C=O)CC(=O)O)C(C)C	-0.2%
C[C@H]1[C@@H](O)[C@@H](C)\C=C/C=C\C=C/C=C\C=C/C=C\C=C/[C@@H](O[C@H]2O[C@@H](C)[C@@H](O)[C@@H](N)[C@@H]2O)C[C@@H]2O[C@](O)(C[C@@H](O)C[C@@H](O)[C@@H](O)CC[C@@H](O)C[C@@H](O)CC(=O)O[C@H]1C)C[C@@H](O)[C@H]2C(=O)O (stereo in doubt)	?
O=C(O)[C@@H]1CCCNC1	-7.2%
C=C(C)C(O)/C=C/c1ccc(C(F)(F)F)cc1 (stereo unspecified)	14.7%&1.2%
C[C@H]1Cc2c(COc3ccccc3)nc3c(c2CO1)CN(S(=O)(=O)c1ccc(Cl)c2nonc12)CC3	13.5%
COc1cc([C@@H]2CC(=O)c3c(O)cc(O)cc3O2)ccc1O	-14.4%
Cc1ccc(-c2ccc(C3C4C=CCCC4(C)C(=O)N3Cc3ccccc3)c(F)c2)cc1 (stereo unspecified)	?
COC(=O)NC(c1ccco1)C(C(C)=O)C(=O)OC (stereo unspecified)	8.1%
CCOC(=O)C1=NO[C@@]2(C=C(Br)C3(OCCCO3)[C@H]3O[C@H]32)C1	1.7%
COCOc1cc(OC)ccc1C(=O)/C=C\c1ccc2c(c1)OCO2	2.2%
C=N[C@H](C(=O)N[C@@H]1C(=O)N2[C@@H]1SC(C)(C)[C@@H]2C(=O)O)c1ccccc1	12.1%
CCCCCN=c1ccn(Cc2ccccc2)c2ccccc12	-3.7%
CCCCCCCCCC(=O)OCC(CO)OC(=O)CCCCCCCCC (stereo unspecified)	-4.8%&-3.7%
COC(=O)C1[C@@H](OC)C(OC(=O)COc2ccc(OC)cc2)C[C@@H]2CN3CCc4c([nH]c5cc(OC)ccc45)[C@H]3C[C@H]12 (stereo partly specified)	16.2%
O=C(/C=C/c1ccc(O)c(O)c1)c1ccc(O[C@@H]2O[C@H](CO)[C@@H](O)[C@H](O)[C@H]2O)c(O)c1O	?
O=C1C2C(c3ccccc3)CC=CC2C(c2cccc(Br)c2)N1Cc1ccccc1 (stereo unspecified)	-0.4%
CNC1(C)C2CCC(C2)C1(C)C (stereo unspecified)	18.4%
Nc1nc2[nH]cc(CCc3ccc(C(=O)NC(CCC(=O)O)C(=O)O)cc3)c2c(=O)[nH]1 (stereo unspecified)	11.0%
COc1cccc2nc(-c3cccs3)nc(NN3C(=O)C=C(C)C3=O)c12	?
COc1cccc(OC)c1C1=Nn2c(nnc2-c2ccccc2C)SC1	-6.8%
COC(=O)[C@@]1(Cc2ccccc2)[C@H]2c3cc(C(=O)N(C)C)n(Cc4ccccc4)c3C[C@H]2CN1C(=O)c1ccccc1	-4.1%
O=C(O)[C@H]1C[C@@H](CP(=O)(O)O)CCN1	-0.4%&-16.0%
COc1ccc(-c2ccccc2C2C3C=CCCC3(C)C(=O)N2Cc2ccccc2)cc1 (stereo unspecified)	-28.7%
COCCNC(=O)C1(CC(C)C)C=CCN1C(=O)OC (stereo unspecified)	24.7%
CCCCCCCC1=Cc2ccccc2C(CC(=O)c2ccccc2)N1C(=O)OC (stereo unspecified)	0.2%
COc1ccc(C2=Nn3c(nnc3-c3cccc(OC)c3OC)SC2)cc1	3.5%
C=C1CCN(C(Cc2ccccc2)C(=O)NCc2ccc(Cl)cc2)S(=O)(=O)c2ccccc21 (stereo unspecified)	3.8%&2.5%
C[C@H]1Cc2c(-c3ccccc3)nc3c(c2CO1)CN(S(=O)(=O)c1ccc(C#N)cc1)CC3	1.3%
Cc1nc2[nH]c(=O)[nH]c(=O)c2[nH]1	-17.3%

# Additional records follow.
molecule	Sfp inh
CCCCC1=CC2=C(c3ccco3)C(=O)C(C)(OC(=O)c3cccs3)C(=O)C2=CO1 (stereo unspecified)	-17.4%
CC(=O)c1ccc(-c2ccc(C3C4C=CCCC4(C)C(=O)N3Cc3ccccc3)c(F)c2)cc1 (stereo unspecified)	?
N[C@H](Cc1ccc(Cl)cc1)C(=O)O	-28.5%
Cc1cccc([C@@H]2CN(C)CCc3c2cc(O)c(O)c3Cl)c1	79.4µM*
Cc1ccc(S(=O)(=O)Nc2cccc3ccc[n+](C)c23)cc1	-11.0%
C=CCOC(=O)N[C@H](/C(C(=O)OC)=C(\C)NCc1ccccc1)c1ccc(Br)cc1	-9.6%
O=S(=O)(c1cccc2c(I)cccc12)N1CCCNCC1	-22.8%&-1.9%
CCS(=O)(=O)N1CCC[C@H]2CN3CCc4cc(OC)ccc4[C@@H]3C[C@@H]21	23.6%&7.2%
NC(=O)C1c2ccccc2CCc2ccccc21	-0.2%
CC(C)[N+]1(C)C2CCC1CC(OC(=O)C(CO)c1ccccc1)C2 (stereo unspecified)	10.6%&-5.1%
CCN(CC)CCNC(=O)c1c(C)[nH]c(/C=C2\C(=O)Nc3ccc(F)cc32)c1C	1.5%
CC(C)(C)N1C(=O)[C@H]2[C@H]3[C@H](O)[C@H](O)C/C(=N/NC(=O)OCc4ccccc4)[C@@H]3CC[C@@H]2C1=O	0.6%

# Some of the entries so far, field by field:
> Cc1ccc(S(=O)(=O)Nc2cccc3ccc[n+](C)c23)cc1
- Sfp inh = -11.0%

> C=CCOC(=O)N[C@H](/C(C(=O)OC)=C(\C)NCc1ccccc1)c1ccc(Br)cc1
- Sfp inh = -9.6%

> O=S(=O)(c1cccc2c(I)cccc12)N1CCCNCC1
- Sfp inh = -22.8%&-1.9%

# Next part.
molecule	Sfp inh
CO[C@@H]1COC(=O)[C@H](COCc2ccccc2)NC(=O)C/C=C\[C@@H](C)[C@H](OC)COC(=O)[C@H](COCc2ccccc2)NC(=O)C/C=C\[C@H]1C	17.8%
CSCC[C@H](NC(=O)[C@H](CCCN=C(N)N)NC(=O)[C@@H]1CCCN1C(=O)[C@H](Cc1ccccc1)NC(=O)[C@H](C)NC(=O)[C@H](CC(C)C)NC(=O)[C@H](Cc1ccc(O)cc1)NC(=O)[C@H](CC(N)=O)NC(=O)[C@@H](N)CCSC)C(N)=O	6.1%
CCOC(=O)N/N=C1/C[C@@H](O)[C@@H](O)[C@@H]2[C@@H]3C(=O)N(C4CCCCC4)C(=O)[C@H]3CC[C@H]12	15.6%
Cc1cccc(-c2cc(=O)c3cc(Br)ccc3o2)c1	79.4µM*
OCc1ccccc1O	9.6%
CC(C)[C@@H](CC(=O)N[C@@H]1CCCC[C@H]1C(=O)N[C@H](CC(=O)N[C@@H](CCC(=O)O)CC(=O)O)Cc1c[nH]c2ccccc12)NC(=O)C[C@H](CO)NC(=O)[C@@H]1CCCC[C@H]1N	?
CNC1=C(Cl)C(=O)c2ccncc2C1=O	1.6%
COc1ccc(C2=Nn3c(nnc3-c3ccc(OC)cc3OC)SC2)c(OC)c1	4.9%
CC1(O)C(=O)C=C2C=C(c3ccsc3)OC=C2C1=O (stereo unspecified)	-14.8%
CC(C)=NOCc1ccc(-c2cc(-c3ccccc3)no2)cc1	-11.0%
CC/C=C\C/C=C\C/C=C\C/C=C\C/C=C\CCC(=O)O[C@H](COCCCCCCCCCCCCCCCC)COP(=O)([O-])OCC[N+](C)(C)C	16.7%
CO/N=C(\C(=O)NC1C(=O)N2C(C(=O)OCOC(=O)C(C)(C)C)=C(/C=C\c3scnc3C)CSC12)c1csc(N)n1 (stereo unspecified)	-65.6%
O=CN/C=C/c1cc(F)cc(F)c1F	32.5%[activator]
CC1(OC(=O)c2cnc3ccccc3n2)C(=O)C=C2C=C(C3CC3)OC=C2C1=O (stereo unspecified)	-26.7%
COC(=O)C/C=C\[C@@H](C)[C@@H](/C=N\O[C@@H](C)CN1CCCCc2nc(C)c(C)cc21)NS(=O)(=O)c1ccc(C)cc1	4.5%
C=C(NC(=O)C(=C)NC(=O)c1csc(C2=N[C@@H]3c4csc(n4)[C@@H]4NC(=O)c5csc(n5)[C@@H]([C@](C)(O)[C@H](C)O)NC(=O)[C@@H]5CSC(=N5)/C(=C/C)NC(=O)[C@@H]([C@H](C)O)NC(=O)c5csc(n5)[C@]3(CC2)NC(=O)[C@@H](C)NC(=O)C(=C)NC(=O)[C@@H](C)NC(=O)[C@@H]([C@@H](C)CC)N[C@H]2C=Cc3c([C@H](C)O)cc(nc3[C@@H]2O)C(=O)O[C@H]4C)n1)C(N)=O	19.4%
COc1ccc2c(c1OC)C(=O)OC2[C@H]1c2c(cc3c(c2OC)OCO3)CCN1C (stereo partly specified)	4.3%

# Source: PubChem
